Ecoli rRNA inh: inhibits bacterial ribosomal RNA function over humanized ribosomes. E. coli WT GFP vs humanized-ribosome RFP mutants, fluorescence, 24 h; stronger effect = lower value; DMSO median 0, no signal -100. GFP signal change (wild-type ribosome), % (concentration not given with the values). 350,000 tested, 1.6% active. AID 720706;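 active means significant combined selectivity score with lowered wild-type GFP, culture density cut under 30%, mutant RFP and density less affected; inactive means any of these conditions unmet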; further: one replicate is shown; some compounds called inactive have numbers as strong as hits
Vif A3G: HIV-1 Vif–A3G interaction blockers – biochemical, TR-FRET, GST-Vif 1-94, biotin-A3G peptide, dose response retest, primary screen (AID 1117319) | TR-FRET GST-Vif / biotin-A3G peptide binding; higher % means a stronger effect; test concentration not given here; strong numbers were not always called active | inhibition, %; hits with a dose series show IC50 in µM | 260,000 tested, 0.57% active;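 active means above the screen mean plus three standard deviations and confirmed in dose response; inconclusive means results disagree or hit not tested in dose response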;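 further: Vif residues 1-94 fused to GST binding biotinylated APOBEC3G peptide 110-148; 0% = full assay without inhibitor and 100% = GST in place of GST-Vif; retest series ran down from 100 µM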
ALR H2O2 inh: blocks human ALR sulfhydryl oxidase activity. AID 485317. purified ALR, DTT oxidation, H2O2 HRP-luminol luminescence. 290,000 tested, 3.8% active. inhibition, % (concentration not given with the values);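 active means mean and each replicate at 75% or more; inconclusive means only one of the two met; inactive means neither met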;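 further: stock transfer was 7.5 nL into about 7.5 µL; 0% = neutral wells and 100% = wells with inactivated enzyme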
Target sequence (P55789 whole entry, looked up): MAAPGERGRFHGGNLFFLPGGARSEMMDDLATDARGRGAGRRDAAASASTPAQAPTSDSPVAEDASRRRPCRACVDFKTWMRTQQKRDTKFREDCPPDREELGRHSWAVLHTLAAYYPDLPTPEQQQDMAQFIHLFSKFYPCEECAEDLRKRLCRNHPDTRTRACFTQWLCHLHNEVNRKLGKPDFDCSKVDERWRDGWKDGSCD
FGF22 binding: binders of recombinant human FGF22 by thermal shift; Q9HCT0; 340,000 tested, 1.5% active; AID 651658; SYPRO orange fluorescence; percent of sucrose octasulfate shift, DMSO zero; calls only at 9.99 µM;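 active means melting point raised past a set limit in the mean and every replicate; inconclusive means no clear call; three in four hits are not shown here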
Target sequence (Q9HCT0 whole entry, looked up): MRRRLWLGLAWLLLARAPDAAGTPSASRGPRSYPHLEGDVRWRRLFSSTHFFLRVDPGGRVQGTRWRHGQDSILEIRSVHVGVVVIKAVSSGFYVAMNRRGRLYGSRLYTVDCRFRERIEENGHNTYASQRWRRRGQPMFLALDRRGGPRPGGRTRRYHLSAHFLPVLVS
AF4-AF9 inh: MLL-AF4/AF9 protein interaction inhibition. P42568. AlphaScreen, biotin-AF4 peptide binding to FLAG-AF9. inhibition, % at 10 µM. 350,000 tested, 0.47% active;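 active means every replicate reaching a set inhibition limit, whatever the replicate mean, cut at about 25% in these data; inconclusive means mean inhibition reaches that limit but some replicates miss it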;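 further: 0% = plate neutral control median and 100% = total signal loss; the record names both 10 and 1 µM as test concentration; the first replicate is given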
Target sequence (P42568 whole entry, looked up): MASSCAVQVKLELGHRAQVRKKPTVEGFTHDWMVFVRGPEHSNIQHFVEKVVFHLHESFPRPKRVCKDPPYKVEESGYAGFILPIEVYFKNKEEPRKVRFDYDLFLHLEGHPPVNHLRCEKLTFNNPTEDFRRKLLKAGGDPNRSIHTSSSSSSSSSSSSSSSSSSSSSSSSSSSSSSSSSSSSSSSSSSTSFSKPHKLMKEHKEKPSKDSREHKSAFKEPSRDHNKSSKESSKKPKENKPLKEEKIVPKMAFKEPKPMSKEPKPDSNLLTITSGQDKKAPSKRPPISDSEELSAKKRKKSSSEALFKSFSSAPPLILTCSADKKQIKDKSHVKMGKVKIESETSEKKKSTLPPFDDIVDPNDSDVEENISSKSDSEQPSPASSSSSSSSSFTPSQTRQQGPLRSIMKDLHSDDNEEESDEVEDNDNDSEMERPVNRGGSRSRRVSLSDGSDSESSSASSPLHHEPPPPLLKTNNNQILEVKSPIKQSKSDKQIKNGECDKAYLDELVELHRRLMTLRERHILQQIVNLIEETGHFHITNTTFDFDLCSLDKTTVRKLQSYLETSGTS
HNF4A DNA FP: change in binding of human HNF4 alpha to DNA | P41235 | HNF4a-FITC DNA binding, fluorescence polarization, 1 h | activity change, % at 10 µM | 360,000 tested, 0.3% active; in the data active means activity change above about 30%, passing the limit was not always enough;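 further: controls were the assay level and a saturating level of protein; the project sought stronger binding though the title names inhibitors; some compounds called inactive have numbers as strong as hits; positive values seem to mean higher polarization but the record does not say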
E coli growth: blocks Escherichia coli growth; OD600, 23 h; stronger effect = lower value; OD600 absorbance (concentration not given with the values); 330,000 tested, 0.21% active;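 active means OD600 absorbance below the run mean of sample wells minus 3.6 SD, in any replicate, cut at about 0.56 in these data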;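 further: stock transfer was 300 nL into about 60 µL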
Ecoli rRNA inh OD600: also measured in Ecoli rRNA inh; calls as there; OD600 change, %; measured here: OD600 growth;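 optical density of the mix in the first replicate; 0 = DMSO median and -100 = no signal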
Ecoli rRNA inh RFP: second read-out of Ecoli rRNA inh, no call of its own (marks repeat the call); RFP signal change, %; measured here: RFP humanized mutant strains;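 first replicate; 0 = DMSO median and -100 = no signal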
* marks the source's active call; other numbers are inactive results; & = joins results of further samples. These rows are one share of the data, so the mix of outcomes need not match the whole.

`Cc1nnc(N(Cc2ccco2)C(=O)c2cccc(C#N)c2)s1` gave Vif A3G -0.4%, ALR H2O2 inh -2.0, HNF4A DNA FP 2.5 and E coli growth 0.636.
Screening CC1=C(C(=O)NCc2ccco2)C2(CCC(C)CC2)OC1=O (configuration not stated) returned Ecoli rRNA inh 3.2, Vif A3G >100µM*, ALR H2O2 inh -23.3, FGF22 binding inactive, AF4-AF9 inh -1.5, HNF4A DNA FP -2.4, E coli growth 0.714, Ecoli rRNA inh OD600 9.9 and Ecoli rRNA inh RFP -3.0.
For CN=c1scc(-c2ccc(Cl)cc2)n1C the results were Vif A3G 10.5%, HNF4A DNA FP -2.1 and E coli growth 0.653.
For Cc1ccc(C2c3c(C)nn(-c4ccc([N+](=O)[O-])cc4)c3N=C3C(=O)Nc4ccccc4N32)cc1 (configuration not stated) the results were Vif A3G 9.1%, ALR H2O2 inh -1.5 and E coli growth 0.704.
`O=S(=O)(Nc1nc2ccccc2nc1Nc1ccc2c(c1)OCCO2)c1cccs1` gave Ecoli rRNA inh -4.4&-31.4, Vif A3G 20.2%, ALR H2O2 inh 23.8, FGF22 binding inactive, AF4-AF9 inh 2.6, HNF4A DNA FP 47.8*, E coli growth 0.678, Ecoli rRNA inh OD600 5.9&-46.5 and Ecoli rRNA inh RFP -3.9&9.7.
For CCC(=O)N1C[C@H]2[C@@H](c3ccccc31)[C@H](CO)N2C(=O)Nc1ccccc1 the results were Ecoli rRNA inh 0.6, FGF22 binding inactive, AF4-AF9 inh -5.1, Ecoli rRNA inh OD600 2.1 and Ecoli rRNA inh RFP -1.7.
`COc1ccc(C(NC(=O)CC(C)C)NC(=O)CC(C)C)cc1OC` gave Vif A3G 1.6%, ALR H2O2 inh -3.3, HNF4A DNA FP -0.7 and E coli growth 0.74.
For C/C=C/c1ccc2c(c1)O[C@H](CN(C)C(C)=O)[C@H](C)CN([C@@H](C)CO)S2(=O)=O the results were Ecoli rRNA inh 0.9, FGF22 binding inactive, AF4-AF9 inh -2.7, Ecoli rRNA inh OD600 2.1 and Ecoli rRNA inh RFP -1.5.
For CN(C)C1=NC(=O)/C(=C\c2ccccc2)S1 the results were Ecoli rRNA inh -1.3, Vif A3G 13.8%, ALR H2O2 inh inconclusive, FGF22 binding inactive, AF4-AF9 inh -1.4, HNF4A DNA FP 1.7, E coli growth 0.706, Ecoli rRNA inh OD600 -0.1 and Ecoli rRNA inh RFP 1.3.
For COc1ccccc1C(=O)n1nc(C)cc1C the results were Vif A3G -0.7%, ALR H2O2 inh -1.7, HNF4A DNA FP 0.3 and E coli growth 0.777.
For COCCNC(=O)c1ccc2c(c1)nc(C)n2-c1cccc(F)c1 the results were Vif A3G 11.5%, ALR H2O2 inh -2.6, HNF4A DNA FP -3.9 and E coli growth 0.72.
`O=C(c1sc2ccccc2c1Cl)N(Cc1cccs1)C1CCS(=O)(=O)C1` (configuration not stated) gave Ecoli rRNA inh -15.6, Vif A3G 13.0%, ALR H2O2 inh -3.2, FGF22 binding inactive, AF4-AF9 inh 3.6, HNF4A DNA FP 0.7, E coli growth 0.798, Ecoli rRNA inh OD600 -21.7 and Ecoli rRNA inh RFP 0.1.
COc1cccc(NC(=O)CCc2c(C)nc3nc(CNC(=O)c4cccc(F)c4)nn3c2C)c1 was read as Ecoli rRNA inh -3.8, Vif A3G -4.2%, ALR H2O2 inh 0.9, FGF22 binding inactive, AF4-AF9 inh 0.5, HNF4A DNA FP -2.0, E coli growth 0.703, Ecoli rRNA inh OD600 -0.5 and Ecoli rRNA inh RFP 0.7.
Screening COc1cccc(OC)c1OCCN(C)C returned Vif A3G inconclusive, HNF4A DNA FP 3.5 and E coli growth 0.69.
For CCOC(=O)c1cc2cc(OC)ccc2n1C1CCN(CCc2ccccc2)CC1 the results were Ecoli rRNA inh -20.8, FGF22 binding inactive, AF4-AF9 inh 8.1, HNF4A DNA FP -3.9, Ecoli rRNA inh OD600 -51.2 and Ecoli rRNA inh RFP -4.5.

The closing 2 records of the section above are carried over, then new ones follow:
Screening COc1cccc(OC)c1OCCN(C)C returned Vif A3G inconclusive, HNF4A DNA FP 3.5 and E coli growth 0.69.
For CCOC(=O)c1cc2cc(OC)ccc2n1C1CCN(CCc2ccccc2)CC1 the results were Ecoli rRNA inh -20.8, FGF22 binding inactive, AF4-AF9 inh 8.1, HNF4A DNA FP -3.9, Ecoli rRNA inh OD600 -51.2 and Ecoli rRNA inh RFP -4.5.
Screening O=C1c2cc(S(=O)(=O)NCCO)ccc2-c2ccc(S(=O)(=O)NCCO)cc21 returned Ecoli rRNA inh 20.0, Vif A3G -3.0%, ALR H2O2 inh -0.9, FGF22 binding inactive, AF4-AF9 inh -1.5, HNF4A DNA FP -0.9, E coli growth 0.678, Ecoli rRNA inh OD600 6.4 and Ecoli rRNA inh RFP -0.5.
`O=C(CCN1CCCCC1)N[C@@H]1CC[C@H](CCn2cc(-c3cccc(F)c3)nn2)O[C@H]1CO` gave Ecoli rRNA inh 1.8, FGF22 binding inactive, AF4-AF9 inh 3.7, Ecoli rRNA inh OD600 10.2 and Ecoli rRNA inh RFP -1.7.
For CC(=O)Nc1ccc2nc(-c3ccco3)[nH]c2c1 the results were Ecoli rRNA inh 3.6, Vif A3G -12.0%, ALR H2O2 inh -10.5, FGF22 binding inactive, AF4-AF9 inh -0.5, HNF4A DNA FP -0.3, E coli growth 0.718, Ecoli rRNA inh OD600 -3.0 and Ecoli rRNA inh RFP 2.4.
For C#CCSc1nnc(C)c(C)n1 the results were Ecoli rRNA inh 4.8, ALR H2O2 inh -4.3, FGF22 binding inactive, AF4-AF9 inh -1.4, HNF4A DNA FP 0.7, E coli growth 0.675, Ecoli rRNA inh OD600 4.0 and Ecoli rRNA inh RFP -0.5.
Screening COc1ccc(C(=O)Nc2cccc(-c3cnc4ccccc4n3)c2)cc1 returned Vif A3G -19.6%, ALR H2O2 inh -7.1, HNF4A DNA FP 0.1 and E coli growth 0.732.
Screening Cc1ccc(O)c(C2=Nc3ccccc3C2(C)C)c1 returned Ecoli rRNA inh -28.3, Vif A3G 5.7%, ALR H2O2 inh -1.7, FGF22 binding inactive, AF4-AF9 inh 8.8, HNF4A DNA FP 3.8, E coli growth 0.681, Ecoli rRNA inh OD600 -31.9 and Ecoli rRNA inh RFP -4.3.
O=C(NCc1ccco1)c1cc(-c2ccc(Cl)cc2)on1 was read as Vif A3G inconclusive, ALR H2O2 inh 3.4, HNF4A DNA FP 2.6 and E coli growth 0.735.
`CC(C)(C)CN1CCN(Cc2nc(-c3ccc(F)cc3)cs2)CC1CCO` (configuration not stated) gave Ecoli rRNA inh -24.5, ALR H2O2 inh -6.3, FGF22 binding inactive, AF4-AF9 inh 3.4, HNF4A DNA FP 2.2, E coli growth 0.645, Ecoli rRNA inh OD600 -23.1 and Ecoli rRNA inh RFP -0.7.
For O=C(Cc1ccc(F)cc1)NCCc1ccc(F)cc1 the results were Vif A3G 0.5%, ALR H2O2 inh -2.5, HNF4A DNA FP 4.6 and E coli growth 0.702.
Screening C[C@H](CO)N1C[C@H](C)[C@@H](CN(C)Cc2ccc3c(c2)OCO3)Oc2c(cccc2N(C)C)C1=O returned Ecoli rRNA inh 3.4, FGF22 binding inactive, AF4-AF9 inh -0.5, Ecoli rRNA inh OD600 7.2 and Ecoli rRNA inh RFP -1.6.
COc1ccc(S(=O)(=O)Nc2ccc3c(c2)C(=O)N([C@@H](C)CO)C[C@@H](C)[C@@H](CN(C)C(=O)CCCN(C)C)OCCCC[C@@H](C)O3)cc1 was read as Ecoli rRNA inh 3.5, FGF22 binding inactive, AF4-AF9 inh 2.4, Ecoli rRNA inh OD600 3.4 and Ecoli rRNA inh RFP -0.2.
`CC(C)(C)OC(=O)NC1CNNC1=O` (configuration not stated) gave Ecoli rRNA inh 4.3, ALR H2O2 inh 7.8, FGF22 binding inactive, AF4-AF9 inh -15.1, HNF4A DNA FP 0.7, E coli growth 0.638, Ecoli rRNA inh OD600 10.3 and Ecoli rRNA inh RFP -3.3.
Screening COc1ccc(S(=O)(=O)Nc2ccc3c(c2)C(=O)N([C@@H](C)CO)C[C@H](C)[C@@H](CN(C)C(=O)NC2CCCCC2)O3)cc1 returned Ecoli rRNA inh 1.7, FGF22 binding inactive, AF4-AF9 inh -2.6, Ecoli rRNA inh OD600 1.2 and Ecoli rRNA inh RFP -5.7.
For Cc1cc(NC(=O)COC(=O)CCS(=O)(=O)c2cc(Cl)ccc2Cl)no1 the results were Ecoli rRNA inh 3.5, ALR H2O2 inh 16.5, FGF22 binding inactive, AF4-AF9 inh -2.2, HNF4A DNA FP 3.4, E coli growth 0.671, Ecoli rRNA inh OD600 1.9 and Ecoli rRNA inh RFP 1.5.
Screening C[C@@H]1CN([C@H](C)CO)C(=O)c2cccc(NC(=O)C3CC3)c2O[C@@H]1CN(C)C returned Ecoli rRNA inh 3.1, FGF22 binding inactive, AF4-AF9 inh 2.9, Ecoli rRNA inh OD600 6.1 and Ecoli rRNA inh RFP 0.3.
For CCN(CC)C(=O)COc1ccc(C=O)cc1OC the results were Ecoli rRNA inh 4.4, Vif A3G inconclusive, ALR H2O2 inh 2.3, FGF22 binding inactive, AF4-AF9 inh 1.6, HNF4A DNA FP 5.0, E coli growth 0.684, Ecoli rRNA inh OD600 0.7 and Ecoli rRNA inh RFP -1.8.
COCCn1c(=O)[nH]c2cc(C(=O)Nc3nnc(C)s3)ccc21 was read as Ecoli rRNA inh -1.2, Vif A3G 0.8%, ALR H2O2 inh -16.8, FGF22 binding inactive, AF4-AF9 inh 1.3, HNF4A DNA FP 2.2, E coli growth 0.659, Ecoli rRNA inh OD600 6.0 and Ecoli rRNA inh RFP 0.2.
For O=C1CCN(Cc2ccccc2)C=C1C(=O)c1ccccc1 the results were Ecoli rRNA inh -7.2, Vif A3G -3.3%, FGF22 binding inactive, AF4-AF9 inh -3.1, HNF4A DNA FP 1.6, E coli growth 0.678, Ecoli rRNA inh OD600 4.2 and Ecoli rRNA inh RFP 1.3.
`CCOc1ccc(C(=O)/C=C/c2cn(CN3CCN(C)CC3)c3ccccc23)cc1` gave Ecoli rRNA inh -5.2, Vif A3G 0.2%&-2.4%, ALR H2O2 inh -4.7, FGF22 binding inactive, AF4-AF9 inh -8.6, HNF4A DNA FP -1.0, E coli growth 0.709, Ecoli rRNA inh OD600 -5.5 and Ecoli rRNA inh RFP 60.0.
For CN(C)c1ccc(/C=C(\NC(=O)c2ccccc2)C(=O)NCCCN2CCOCC2)cc1 the results were Ecoli rRNA inh 24.4, Vif A3G 10.2%, ALR H2O2 inh 98.4*, FGF22 binding inactive, AF4-AF9 inh -2.5, HNF4A DNA FP 1.0, E coli growth 0.71, Ecoli rRNA inh OD600 16.6 and Ecoli rRNA inh RFP 4.8.
O=C(CCNC(=O)c1ccc([N+](=O)[O-])cc1)Oc1ccc(F)c(F)c1 was read as Ecoli rRNA inh -3.2, ALR H2O2 inh 17.9, FGF22 binding inactive, AF4-AF9 inh 1.3, HNF4A DNA FP 0.4, E coli growth 0.711, Ecoli rRNA inh OD600 14.3 and Ecoli rRNA inh RFP 1.1.
CCOC(=O)CN(C(=O)CSc1nnnn1C)c1ccccc1 was read as Ecoli rRNA inh 14.1, Vif A3G 2.1%, ALR H2O2 inh -3.8, AF4-AF9 inh 1.5, HNF4A DNA FP -1.9, E coli growth 0.726, Ecoli rRNA inh OD600 12.0 and Ecoli rRNA inh RFP -0.7.
Screening CC(C)CNC(=O)C1CCN(CC2CCCCC2)CC1 returned Ecoli rRNA inh 7.6, ALR H2O2 inh 1.0, FGF22 binding inactive, AF4-AF9 inh -0.2, HNF4A DNA FP 1.8, E coli growth 0.686, Ecoli rRNA inh OD600 8.6 and Ecoli rRNA inh RFP 4.3.

Screens deposited in PubChem BioAssay by several laboratories.
